Screening data as filed in PubChem.
Six1-Eya2 blk: blocks human Six1 binding to Eya2; AlphaScreen GST-Six1/His-Eya2 binding, biochemical; active compounds read low; control for the full effect not named in the record; 360,000 compounds, 0.56% hits; activity change, % (test concentration not listed); AID 651725; in the data active = activity change below about -65%; inconclusive = about -30% to -65%; inactive = above about -30%; note: % is set by controls: 0 for no effect and ±100 for the full control effect
Target sequence (O00167 whole entry, looked up): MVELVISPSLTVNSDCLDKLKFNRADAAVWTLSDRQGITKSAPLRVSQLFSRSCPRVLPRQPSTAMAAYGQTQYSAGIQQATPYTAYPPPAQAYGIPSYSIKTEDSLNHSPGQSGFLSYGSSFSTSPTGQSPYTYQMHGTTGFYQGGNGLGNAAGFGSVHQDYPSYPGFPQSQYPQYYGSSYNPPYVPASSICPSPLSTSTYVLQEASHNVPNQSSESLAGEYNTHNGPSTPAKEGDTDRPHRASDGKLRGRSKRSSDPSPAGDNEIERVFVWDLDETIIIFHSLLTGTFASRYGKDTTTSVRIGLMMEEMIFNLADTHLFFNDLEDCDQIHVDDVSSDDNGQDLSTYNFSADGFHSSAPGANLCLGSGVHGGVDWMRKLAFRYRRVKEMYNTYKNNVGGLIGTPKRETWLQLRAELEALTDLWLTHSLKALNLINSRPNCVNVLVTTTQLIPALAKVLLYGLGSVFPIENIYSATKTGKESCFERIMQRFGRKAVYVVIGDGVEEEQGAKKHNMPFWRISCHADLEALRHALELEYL
Target sequence (Q15475 whole entry, looked up): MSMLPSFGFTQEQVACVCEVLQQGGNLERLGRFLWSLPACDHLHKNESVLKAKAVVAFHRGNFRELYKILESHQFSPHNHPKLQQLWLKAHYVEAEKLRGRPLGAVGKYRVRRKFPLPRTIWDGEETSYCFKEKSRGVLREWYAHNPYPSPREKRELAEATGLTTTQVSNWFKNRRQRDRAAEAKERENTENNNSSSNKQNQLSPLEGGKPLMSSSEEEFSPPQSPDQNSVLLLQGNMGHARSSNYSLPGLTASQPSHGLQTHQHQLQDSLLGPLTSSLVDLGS
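GST-Six1 + His-Eya2 (5X stock: 250/500 nM); Tris pH 8.0, 300 mM NaCl, 0.05% BSA, 0.02% Tween 20; GSH donor/Ni acceptor beads; 1 h 37 °C dark; AlphaScreen readout.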
D2 ag: activates the human D2 dopamine receptor; P14416; DiscoveRx PathHunter D2 beta-arrestin, luminescence, 90 min; 100% = 57 uM dopamine signal; AID 624465; activation, % (concentration not given with the values); 360,000 compounds, 0.084% hits; in the data active = activation above about 40%; inconclusive = about 15% to 40%; inactive = below about 15%; note: the text of the record calls up to 30% inactive
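Agonist mode: compounds alone added to overnight-plated D2 PathHunter cells for 90 min at 37 C, with 57 uM final dopamine (EC100) defining full response. Beta-arrestin recruitment detected by chemiluminescent reagent, read after 1 h at ambient temperature.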
TRPV1 PAM: human TRPV1 potentiation. Q8NER1. TRPV1-expressing cells, Fluo-8 calcium influx, capsaicin EC20 potentiation; host cell line not named in the record; control for the full effect not named in the record. potentiation, % at 8.33 µM. 320,000 compounds, 0.02% hits. AID 540277; active means potentiation above 80%; inconclusive means 30% to 80%; inactive means below 30%; note: 0% is about no effect
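TRPV1-expressing cells were cultured overnight at 35.5C and loaded with Fluo-8 calcium dye for 40 to 90 min at room temperature. After a 10 s baseline, compound was added and calcium influx was read kinetically for 3 min (ex 480/em 520 nm).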
Sfp PPTase inh: inhibitors of Bacillus subtilis Sfp phosphopantetheinyl transferase; Q9F4F7; Biochemical Sfp PPTase activity, qHTS; Potency, µM, inactives show max response, negative = inhibition, hits mostly inhibitors; 310,000 compounds, 3.5% hits; AID 1490; active = well fitted inhibition curve with a large enough effect; inconclusive = small, poorly fitted or top-dose-only effect, or another doubt; inactive = no such curve, though single readings can be large or run the other way;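 note: the enzyme is Sfp with the accession as filed and its product quenches rhodamine fluorescence; potency is the fitted concentration of half-maximal effect; 0% = enzyme reaction without inhibitor and -100% = no enzyme wells; top concentration of the series not given in the record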
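Compounds were incubated with enzyme (final 15 nM) for 15 min at room temperature before substrate addition started the reaction. Fluorescence at 525 nm excitation, 598 nm emission was recorded immediately and after 30 minutes.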
CtBP-E1A inh: inhibitors of CtBP/E1A interaction; AlphaScreen GST-E1A/His-CtBP binding, 1536-well; active compounds read low; control for the full effect not named in the record; activity change, % (no concentration beside the values); 340,000 compounds, 0.49% hits; AID 651724; in the data active means activity change below about -65%; inconclusive means about -30% to -65%; inactive means above about -30%; note: % is set by controls: 0 for no effect and ±100 for the full control effect
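Steps: dispense buffer (Tris pH 8.0, NaCl 300 mM, TCEP 1 mM, BSA, Tween 20); add 5X protein mix (GST-E1A, His-CtBP, 125 nM each); pin 23 nL compound; 2 h at 37 °C, dark; add 5X beads (50 ug/mL); 1 h; read.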
D2 PAM: positive allosteric modulators of human D2 dopamine receptor | P14416 | 360,000 compounds, 0.23% hits | DiscoveRx D2 beta-arrestin cells, luminescence, 90 min; 100% = 57 uM dopamine signal | potentiation, % (test concentration not listed); active = potentiation of 50% or more; inconclusive = 30% to 50%; inactive = 30% or less;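 note: compound concentration not given in the record; tested on top of an EC20 dose of dopamine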
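D2 cells co-treated with compound plus 50 nM dopamine (EC20) for 90 min at 37 deg C to detect potentiation. Beta-arrestin recruitment was read as enzyme-fragment luminescence after 1 h at ambient temperature. Full response was set by 57 uM dopamine.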
PINK1 expr mod: changes PINK1 expression. PINK1 immunofluorescence, high-content cytometry, 24 h. Potency, µM (series often up to 76.6 µM), for inactives: top-dose activation (PINK1 increase), hits mostly activators. 410,000 compounds, 0.2% hits; active = well fitted activation curve with a large enough effect; inconclusive = small, poorly fitted or top-dose-only effect; inactive = flat fitted curve, though single readings scatter; cell line not stated here;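 note: potency is the fitted concentration of half-maximal effect; % of control where 0% means no effect; nearly all actives have a fitted effect of over 65% in size; a mitochondrial uncoupler was the plate control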
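PINK1 protein, normally rapidly degraded, was detected by immunofluorescence after 24 hour compound treatment of a stable cell line. Titration data (5 concentrations) came from laser-scanning cytometry, with CCCP-treated wells as controls.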
Numbers without * were called inactive; ? = inconclusive; / = no result given; & = joins results of further samples; [ ] = another dose, or the depositor's remark.

SMILES	Six1-Eya2 blk	D2 ag	TRPV1 PAM	Sfp PPTase inh	CtBP-E1A inh	D2 PAM	PINK1 expr mod
COCCOn1c(SCCOC)nc2ccccc2c1=O	8	6.0	5	14%	6	-2	-0.6%
O=C(Cn1cnc2scc(-c3ccccc3)c2c1=O)NCc1ccco1	0	-2.4	5	-5%	/	-5	1.7%
NS(=O)(=O)c1ccc(NC(=O)c2ccc(F)cc2F)c(NC(=O)c2ccc(F)cc2F)c1	-1	-0.4	5	9%	0	0	0.3%
O=C(CNC(=O)c1ccccc1Cl)Nc1ccc(F)cc1	-7	10	-8	8%	6	-32	-1.8%
O=[N+]([O-])c1ccc(Nc2ccccc2O)c([N+](=O)[O-])c1	?	4.5	/	/	-19	19	?
Cc1ccc2nc(C(=O)N3CCCC(Nc4ccc(F)cc4)C3)cn2c1 (stereo unspecified)	3	0.1	-22	-2%	3	-7	-1.1%
COc1ccc(CC(O)CO)cc1OCc1ccccc1 (stereo unspecified)	-2	-5.3	/	/	0	-12	1.8%
CCCCCN(C(=O)NC(=O)Nn1cnnc1)S(C)(=O)=O	0	-1.6	-3	-18%	0	-7	-0.9%[38.3 µM]
O=C(CSc1nnc(-c2ccncc2)o1)Nc1ccc(F)c(F)c1	4	-1.0	-2	/	-1	2	2.7%
N#Cc1c(=O)c2nc(NCc3ccccc3)ncc2n2ccccc12	-66*	-2.5	1	4%	?	-2	0.9%
COc1ccc(C)cc1NC(=O)C1CC(=O)N(CCc2ccccc2)C1 (stereo unspecified)	0	-4.4	-19	-14%	0	-16	0.2%
Cc1ccccc1-c1ccc(=O)n(CC(=O)Nc2ccc(N3CCOCC3)cc2)n1	-3	-0.3	11	4%	-6	-2	1.3%[38.3 µM]

Overlap with the part before: 4 entries, then new ones.
SMILES	Six1-Eya2 blk	D2 ag	TRPV1 PAM	Sfp PPTase inh	CtBP-E1A inh	D2 PAM	PINK1 expr mod
O=C(CSc1nnc(-c2ccncc2)o1)Nc1ccc(F)c(F)c1	4	-1.0	-2	/	-1	2	2.7%
N#Cc1c(=O)c2nc(NCc3ccccc3)ncc2n2ccccc12	-66*	-2.5	1	4%	?	-2	0.9%
COc1ccc(C)cc1NC(=O)C1CC(=O)N(CCc2ccccc2)C1 (stereo unspecified)	0	-4.4	-19	-14%	0	-16	0.2%
Cc1ccccc1-c1ccc(=O)n(CC(=O)Nc2ccc(N3CCOCC3)cc2)n1	-3	-0.3	11	4%	-6	-2	1.3%[38.3 µM]
COC(=O)c1ccc(N)cc1O	4	-0.5	-16	11%	-3	-5	-1.2%
NC(=O)NCCCC(NC(=O)c1ccc(C#CC2(O)CCCCC2)cc1)C(=O)O (stereo unspecified)	11	-2.7	15	14%	/	-5	1.9%
NC(=O)c1ccsc1NC(=O)COC(=O)/C=C/c1ccccc1[N+](=O)[O-]	-1	6.9	/	/	9	16	3.0%
CN(C)C(=O)CN(C)S(=O)(=O)c1ccc(Cl)cc1	3	1.2	4	6%	45	3	-0.2%[38.3 µM]
C/C(=N\NC(=O)Cc1ccc(Cl)cc1)c1cccnc1	-8	-1.3	13	5%	-11	-39	-0.8%
COc1ccc(CNC(=O)C(C)N2C(=O)NC(c3ccccc3)(c3ccccc3)C2=O)cc1 (stereo unspecified)	1	8.4	-7	/	-4	-2	-2.4%
CCn1c(C)c(C(C)=O)c(N2CCCCC2)nc1=S	11	0.9	7	8%	-3	-14	-2.6%
CC(=O)Oc1ccc(C(=O)Nc2cccc(C(=O)c3ccc(C)c(C)c3)c2)cc1	-15	-3.5	-21	17%	/	-17	1.8%
CCOc1ccc(C(C(=O)NC2CCCCC2)N(C(=O)Cc2cccs2)c2ccc(-n3cnnn3)c(OC)c2)cc1 (stereo unspecified)	-1	-2.8	-1	20%	-6	-24	3.0%
C=CCn1c(=S)sc2c(=O)[nH]cnc21	0	-5.0	30	17%	-11	-7	1.1%
COc1ccc(CCNC(=O)c2cccc(S(=O)(=O)N3CCCCCC3)c2)cc1	-3	-5.1	-3	/	9	-13	1.4%
O=C(NCc1cccnc1)c1csc([C@H]2C[C@H](O)[C@@H](CO)O2)n1	5	-7.0	/	/	6	-1	0.3%
O=C(CCCC(=O)OCC(=O)c1cccs1)Nc1ccc(Oc2ccccc2)cc1	2	-2.5	?	21%	3	-5	0.5%
COC(=O)[C@H](CCSC)NC(=O)Nc1cccc(C)c1C	-2	0.3	5	0%	-6	-5	-0.5%
O=C(O)c1cnc(N2CCOCC2)nc1	-5	0.5	1	11%	/	-1	-0.6%
NCC(O)COCCC12CC3CC(CC(C3)C1)C2 (stereo unspecified)	-1	-3.1	-1	?	0	15	0.7%
CC(C)CN(C(=O)CC1CCCC1)c1c(N)n(Cc2ccccc2)c(=O)[nH]c1=O	1	-1.8	-2	/	-1	-16	-2.7%
Cn1ccnc1SCCC#N	-1	0.1	-3	11%	1	0	1.2%
NNC(=O)c1csc(COc2cc(Cl)cc(Cl)c2)n1	4	3.0	-19	3%	-2	-7	3.1%
CCC(=O)N1CCc2cc(S(=O)(=O)NC(C(=O)NCc3ccccc3)C(C)C)ccc21 (stereo unspecified)	-1	-2.1	1	-4%	-3	-12	4.6%
Cc1cccc(OCC(=O)NCC(=O)N/N=C/c2cccnc2)c1	-10	-2.5	8	-26%	11	-4	4.6%
CN(C)c1ccc(/C(=N\O)C(F)(F)F)cc1	-10	3.0	-14	4%	-3	-7	-13%[38.3 µM]
CCC1(CC)C(=O)C2=C3C1[C@H](C(=O)OC)CC(C(=O)OC)C[C@H]3n1c(=O)n(-c3ccccc3)c(=O)n1[C@H]2C (stereo partly specified)	1	0.6	/	7%	0	-50	0.4%
C[C@H](NC(=O)c1nc[nH]c1C(=O)NCc1ccc(CNC(=O)OC(C)(C)C)cc1)c1ccccc1	-10	1.3	10	/	-1	7	5.5%
Cc1noc(C)c1C(=O)Nc1cccc(S(=O)(=O)N2CCCCC2)c1	-3	-1.8	-3	/	-2	0	-1.0%
COc1ccccc1NC(=O)CC1COc2ccccc2O1 (stereo unspecified)	11	-1.9	17	13%	11	-6	-1.8%
CCCCNC(=O)[C@@H]1CC=C[C@@H]2CCN(C3CC3)C(=O)[C@@H]21	8	-6.5	/	/	3	2	0.0%
CCc1ccc(NC(=O)C(CC)c2ccccc2)cc1 (stereo unspecified)	11	-1.7	-14	10%	-8	-14	2.7%
Cc1c(C(=O)N2CCOCC2)c(S(=O)(=O)Nc2cccc(C#N)c2)c(C)n1C	1	-1.4	-7	21%	9	-2	-0.1%
C[C@H](CO)N1C[C@H](C)[C@@H](CN(C)C(=O)c2ccncc2)OCc2cnnn2CCCC1=O	0	-7.0	/	/	-18	1	0.2%
Cc1cc(C)c(S(=O)(=O)N2CCCC2CNC(=O)c2ccc3c(c2)OCO3)c(C)c1 (stereo unspecified)	4	-2.8	15	/	-4	-2	0.4%
CCN(CCO)C(=O)C12CCC(C)(C(=O)C1)C2(C)C (stereo unspecified)	1	-0.7	22	23%	8	4	2.5%[38.3 µM]
COc1cccc(OC)c1CN(C)C(=O)c1cnccc1C(F)(F)F	8	-0.6	/	14%	0	-5	-0.1%
COc1cccc(N2CC(C)Cn3c2nc2c3c(=O)[nH]c(=O)n2C)c1 (stereo unspecified)	-9	-7.8	-1	21%	-7	-24	3.2%
CCOc1ccc(NC(=S)NC(=O)/C=C/c2ccc(OC)c(OC)c2)c([N+](=O)[O-])c1	-5	-0.6	/	50µM*	-3	-17	1.5%
CCN(C(=O)c1cc(S(=O)(=O)N2CCCCC2)c[nH]1)c1ccc(OC)cc1	0	2.6	22	14%	1	-2	1.0%&1.2%
Cc1ccc(S(=O)(=O)Nc2cc(C(=O)NCCN3CCCC3)ccc2N2CCCCC2)cc1	2	1.8	-1	-21%	-3	-36	-1.7%
CCOC(=O)N1CCN(CC(O)COC(CC)c2ccccc2)CC1 (stereo unspecified)	-3	0.3	-2	9%	1	-26	-0.3%
S=C(N/N=C/c1ccccc1Cl)Nc1cccc(Cl)c1Cl	-5	-15	-3	-14%	/	-2	2.2%
C=CCNC(=O)c1ccc2c(c1)nnn2C	6	-2.2	5	7%	0	-5	-1.0%
Cc1cc(N/C(=N/S(=O)(=O)c2cc(F)ccc2F)c2ccccc2)n(-c2ccccc2)n1	-1	-0.5	4	18%	/	-12	-0.3%
COc1ccccc1N1CSC2=C(C#N)C(c3ccc(SC)cc3)CC(=O)N2C1 (stereo unspecified)	-5	-5.3	/	3.5µM*	-3	-4	0.4%
CCCc1cc(C(=O)Nc2cc(Br)ccc2O)no1	8	1.3	-14	16%	4	4	2.8%
CC1Cc2cc(/C(O)=C3/C(=O)C(=O)N(Cc4ccncc4)C3c3ccc(N(C)C)cc3)ccc2O1 (stereo unspecified)	0	-5.0	16	4%	0	17	1.4%
COc1cc(OC)c(-c2nc3ccccc3s2)cc1OC	-8	11	8	-18%	1	-32	13%
c1ccc(-c2cc3nc(NCc4cccs4)nc(NCc4ccc5occc5c4)c3s2)cc1	0	-6.3	/	/	18	-8	5.0%
CCc1ccc(C(=O)NCC2(c3ccccc3)CCOCC2)o1	-2	-0.4	/	/	0	-3	1.5%
O=C1c2cccc3c(N4CCCCC4)ccc(c23)C(=O)N1c1ccccn1	14	-2.6	-8	-5%	6	-4	-0.9%

3 compounds out of the list above, sorted by their value in D2 ag, lowest first:
SMILES | Six1-Eya2 blk | D2 ag | Sfp PPTase inh | CtBP-E1A inh | D2 PAM
C=CCNC(=O)c1ccc2c(c1)nnn2C | 6 | -2.2 | 7% | 0 | -5
CCCc1cc(C(=O)Nc2cc(Br)ccc2O)no1 | 8 | 1.3 | 16% | 4 | 4
Cc1ccc(S(=O)(=O)Nc2cc(C(=O)NCCN3CCCC3)ccc2N2CCCCC2)cc1 | 2 | 1.8 | -21% | -3 | -36

Additional structures follow.
SMILES	Six1-Eya2 blk	D2 ag	TRPV1 PAM	Sfp PPTase inh	CtBP-E1A inh	D2 PAM	PINK1 expr mod
CCOCCCN(C)C1CCN(C(=O)c2oc3ccccc3c2NC(=O)COc2ccc(F)cc2)CC1	-3	-8.5	-9	4%	-3	-37	1.7%
Cc1ccc(C2(c3ccccc3)NC(=O)N(CC(=O)NC3(C#N)CCCC3)C2=O)cc1C (stereo unspecified)	7	0.0	-9	/	19	2	0.2%
CCN(c1ccccc1)S(=O)(=O)c1ccc(C(=O)NCc2ccco2)cc1	-5	7.2	/	/	-8	-18	0.5%
COc1ccccc1CN1CCNC(=O)C1CC(=O)NCCc1cnccn1 (stereo unspecified)	8	-6.3	6	6%	4	-5	2.5%
CCOc1ccccc1N1CCN(C(=O)c2c(C)noc2C)CC1	1	-1.6	4	17%	2	-7	2.5%[38.3 µM]
COC(=O)Sc1nc(N2CCOCC2)c2c(c1C#N)CC(C)(C)OC2	-3	-7.0	-14	?	2	-45	-1.2%
